Yeast UUG start = alters start codon recognition fidelity in yeast; S. cerevisiae UUG-firefly luciferase reporter, luminescence/redox ratio; activity score, % at 18.7 µM; hit rate 0.13% among 350,000; AID 602363;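 active = replicate mean at a twofold rise or more, about +100% in these data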;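 note: firefly luciferase made from a UUG start codon reports start codon fidelity; reporter light over untreated wells divided by growth signal over untreated wells; some hits fall short of that in this replicate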
HIV Env fusion = blocks HIV Env-driven cell-cell fusion. HeLa-JRFL Env/CEM21 cell fusion, luciferase. inhibition, % at 12.3 µM. hit rate 1.1% among 360,000;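 active = mean replicate inhibition score of at least 50 and every replicate individually at or above 50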;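 note: 0% = plate neutral controls and 100% = maraviroc near 300 nM; one replicate is shown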
An asterisk follows results filed as active; [ ] = another dose, or the depositor's remark. This is a subset, so the mix of outcomes need not match the whole.

How did C[C@H]1CN([C@@H](C)CO)C(=O)Cc2cc(NC(=O)CCN3CCOCC3)ccc2O[C@H]1CN(C)C(=O)Nc1ccc(C(F)(F)F)cc1 do in these assays?
Yeast UUG start: -3; HIV Env fusion: -19[16.7 µM]

How did C[C@H](CO)N1C[C@H](C)[C@@H](CN(C)CC2CCCCC2)Oc2ccc(N(C)C)cc2C1=O do in these assays?
Yeast UUG start: 0; HIV Env fusion: 14[16.7 µM]

How did O=C(C[C@@H]1C[C@@H]2c3cc(NC(=O)C4CCC4)ccc3O[C@@H]2[C@@H](CO)O1)NCc1ccccc1F do in these assays?
Yeast UUG start: -11; HIV Env fusion: 4[16.7 µM]

What do the screens show for `C[C@H](O)C#Cc1ccc2c(c1)O[C@@H](CN(C)Cc1ccccn1)[C@@H](C)CN([C@@H](C)CO)S2(=O)=O`?
Yeast UUG start: -21; HIV Env fusion: -16[16.7 µM]

Results for C[C@@H]1CN([C@@H](C)CO)C(=O)Cc2cc(NC(=O)CCC(F)(F)F)ccc2O[C@@H]1CN(C)S(=O)(=O)c1cccs1 ?
Yeast UUG start: -2; HIV Env fusion: 2[16.7 µM]

How did CO[C@@H]1CN(C)C(=O)c2cc(NC(=O)C3CCC3)ccc2OC[C@H](C)N(Cc2ccncc2)C[C@@H]1C do in these assays?
Yeast UUG start: -3; HIV Env fusion: -46[16.7 µM]

Results for C[C@@H]1CN([C@H](C)CO)S(=O)(=O)c2ccc(-c3ccccc3)cc2O[C@H]1CN(C)Cc1cncnc1 ?
Yeast UUG start: 3; HIV Env fusion: -14[16.7 µM]

What do the screens show for `C[C@@H]1CN([C@@H](C)CO)C(=O)c2cc(NC(=O)c3ccncc3)ccc2O[C@@H](C)CCCCO[C@H]1CN(C)S(=O)(=O)c1ccccc1`?
Yeast UUG start: 9; HIV Env fusion: 9[16.7 µM]

Results for Cc1noc(C)c1NC(=O)Nc1ccc2c(c1)C(=O)N([C@@H](C)CO)C[C@@H](C)[C@H](CN(C)S(=O)(=O)c1c(C)noc1C)OCCCC[C@H](C)O2 ?
Yeast UUG start: 15; HIV Env fusion: 3[16.7 µM]

What do the screens show for `C[C@@H]1CCCCO[C@H](CN(C)S(C)(=O)=O)[C@@H](C)CN([C@H](C)CO)C(=O)c2cc(NC(=O)Nc3ccc(C(F)(F)F)cc3)ccc2O1`?
Yeast UUG start: -3; HIV Env fusion: 9[16.7 µM]

Results for C[C@@H]1CN([C@H](C)CO)C(=O)c2cccc(NC(=O)c3ccc(-c4nccs4)cc3)c2O[C@H]1CN(C)Cc1ccc(Cl)c(Cl)c1 ?
Yeast UUG start: 0; HIV Env fusion: 15[16.7 µM]

How did CCC(=O)N(C)C[C@@H]1Oc2cc(C#CC3(O)CCCC3)ccc2S(=O)(=O)N([C@@H](C)CO)C[C@H]1C do in these assays?
Yeast UUG start: 0; HIV Env fusion: 2[16.7 µM]

Next section; it opens with the three that closed the last part.
What do the screens show for `C[C@@H]1CCCCO[C@H](CN(C)S(C)(=O)=O)[C@@H](C)CN([C@H](C)CO)C(=O)c2cc(NC(=O)Nc3ccc(C(F)(F)F)cc3)ccc2O1`?
Yeast UUG start: -3; HIV Env fusion: 9[16.7 µM]

Results for C[C@@H]1CN([C@H](C)CO)C(=O)c2cccc(NC(=O)c3ccc(-c4nccs4)cc3)c2O[C@H]1CN(C)Cc1ccc(Cl)c(Cl)c1 ?
Yeast UUG start: 0; HIV Env fusion: 15[16.7 µM]

How did CCC(=O)N(C)C[C@@H]1Oc2cc(C#CC3(O)CCCC3)ccc2S(=O)(=O)N([C@@H](C)CO)C[C@H]1C do in these assays?
Yeast UUG start: 0; HIV Env fusion: 2[16.7 µM]

What do the screens show for `COc1ccc(NC(=O)N(C)C[C@@H]2Oc3ccc(NC(=O)CCC(F)(F)F)cc3C(=O)N([C@@H](C)CO)C[C@@H]2C)cc1`?
Yeast UUG start: 1; HIV Env fusion: -12[16.7 µM]

What do the screens show for `C[C@@H]1CCCCO[C@@H](CN(C)S(C)(=O)=O)[C@@H](C)CN([C@H](C)CO)C(=O)c2cc(NS(C)(=O)=O)ccc2O1`?
Yeast UUG start: -15; HIV Env fusion: -2[16.7 µM]

What do the screens show for `CCCNC(=O)N1C[C@H](C)[C@@H](OC)CN(C)C(=O)c2ccc(NS(C)(=O)=O)cc2OC[C@@H]1C`?
Yeast UUG start: -4; HIV Env fusion: 1[16.7 µM]

How did CCCN1C[C@@H](C)[C@@H](OC)CN(C)C(=O)c2cc(NC(=O)c3ccc(F)cc3)ccc2OC[C@H]1C do in these assays?
Yeast UUG start: 14; HIV Env fusion: -2[16.7 µM]

What do the screens show for `C[C@H]1CN([C@@H](C)CO)S(=O)(=O)c2ccc(-c3ccc(F)cc3)cc2O[C@@H]1CN(C)Cc1cccc(F)c1`?
Yeast UUG start: -1; HIV Env fusion: 39[16.7 µM]

Results for CCCNC(=O)N(C)C[C@H]1Oc2cc(C#CC3CC3)ccc2S(=O)(=O)N([C@@H](C)CO)C[C@H]1C ?
Yeast UUG start: 11; HIV Env fusion: -1[16.7 µM]

What do the screens show for `C[C@H](CO)N1C[C@H](C)[C@H](CN(C)C(=O)Nc2ccccc2)Oc2ncc(C3=CCCCC3)cc2C1=O`?
Yeast UUG start: 11; HIV Env fusion: -6[16.7 µM]

Results for CO[C@@H]1CN(C)C(=O)c2ccc(NC(C)=O)cc2OC[C@H](C)N(Cc2nccs2)C[C@@H]1C ?
Yeast UUG start: -18; HIV Env fusion: 20[16.7 µM]

What do the screens show for `C[C@@H]1CN([C@@H](C)CO)C(=O)c2cc(NC(=O)Nc3ccc(F)cc3)ccc2O[C@@H](C)CCCCO[C@@H]1CN(C)C(=O)Cc1ccccc1`?
Yeast UUG start: -11; HIV Env fusion: -7[16.7 µM]

Results for C[C@@H]1CN([C@H](C)CO)S(=O)(=O)c2ccc(C#CC3CC3)cc2O[C@H]1CN(C)C(=O)c1cnccn1 ?
Yeast UUG start: 9; HIV Env fusion: 5[16.7 µM]

What do the screens show for `COc1cccc(S(=O)(=O)N[C@H]2CC[C@H](CCn3cc(-c4ccccn4)nn3)O[C@@H]2CO)c1`?
Yeast UUG start: -30; HIV Env fusion: 6[16.7 µM]

How did CO[C@H]1CN(C)C(=O)c2cc(NC(C)=O)ccc2OC[C@@H](C)N(C(=O)CN2CCOCC2)C[C@@H]1C do in these assays?
Yeast UUG start: -4; HIV Env fusion: 4[16.7 µM]

What do the screens show for `Cc1noc(C)c1NC(=O)N(C)C[C@H]1OCCCC[C@@H](C)Oc2ccc(NS(=O)(=O)c3cn(C)cn3)cc2C(=O)N([C@@H](C)CO)C[C@@H]1C`?
Yeast UUG start: -8; HIV Env fusion: 6[16.7 µM]

How did C[C@H]1CN([C@@H](C)CO)S(=O)(=O)c2ccc(C#CC3CCCCC3)cc2O[C@@H]1CN(C)C(=O)Cc1ccncc1 do in these assays?
Yeast UUG start: 2; HIV Env fusion: 2[16.7 µM]

How did C[C@@H]1CCCCO[C@H](CN(C)C(=O)Nc2ccc(C(F)(F)F)cc2)[C@H](C)CN([C@H](C)CO)C(=O)c2cc(NS(=O)(=O)c3ccccc3)ccc2O1 do in these assays?
Yeast UUG start: -3; HIV Env fusion: 31[16.7 µM]

What do the screens show for `C[C@@H]1CN([C@H](C)CO)C(=O)Cc2cc(NC(=O)CCN3CCOCC3)ccc2O[C@H]1CN(C)S(=O)(=O)c1cccs1`?
Yeast UUG start: -4; HIV Env fusion: -23[16.7 µM]

What do the screens show for `C[C@@H]1CN([C@@H](C)CO)C(=O)c2cc(NC(=O)Cc3ccccc3)ccc2O[C@@H]1CN(C)CC1CC1`?
Yeast UUG start: -2; HIV Env fusion: 10[16.7 µM]

What do the screens show for `C[C@@H]1CN([C@H](C)CO)C(=O)Cc2cc(NC(=O)CCN3CCOCC3)ccc2O[C@@H]1CN(C)S(=O)(=O)c1cccs1`?
Yeast UUG start: 35; HIV Env fusion: -2[16.7 µM]

Results for CCCN1C[C@H](C)[C@@H](OC)CN(C)C(=O)c2ccc(NS(=O)(=O)c3ccccc3)cc2OC[C@H]1C ?
Yeast UUG start: 18; HIV Env fusion: -2[16.7 µM]

How did CC(C)NC(=O)N(C)C[C@@H]1OCCCC[C@H](C)Oc2ccc(NC(=O)Nc3ccc(C(F)(F)F)cc3)cc2C(=O)N([C@@H](C)CO)C[C@@H]1C do in these assays?
Yeast UUG start: 19; HIV Env fusion: -19[16.7 µM]

Results for Cc1ccc(-c2cnc3c(c2)C(=O)N([C@@H](C)CO)C[C@H](C)[C@H](CN(C)C(=O)c2ccc(F)cc2)O3)cc1 ?
Yeast UUG start: 20; HIV Env fusion: -20[16.7 µM]

Results for COc1ccc(S(=O)(=O)N(C)C[C@@H]2OCCCC[C@@H](C)Oc3ccc(NS(=O)(=O)c4cccs4)cc3C(=O)N([C@@H](C)CO)C[C@@H]2C)cc1 ?
Yeast UUG start: -20; HIV Env fusion: -54[16.7 µM]

How did C[C@H](CO)N1C[C@H](C)[C@@H](CN(C)Cc2ccncc2)Oc2cc(-c3cncnc3)ccc2S1(=O)=O do in these assays?
Yeast UUG start: -9; HIV Env fusion: -4[16.7 µM]

Results for Cc1ccc(S(=O)(=O)Nc2ccc3c(c2)C(=O)N([C@@H](C)CO)C[C@H](C)[C@H](CN(C)C(=O)Nc2ccccc2)OCCCC[C@H](C)O3)cc1 ?
Yeast UUG start: 3; HIV Env fusion: -92[16.7 µM]

Results for COc1ccc(NC(=O)Nc2ccc3c(c2)C(=O)N([C@H](C)CO)C[C@H](C)[C@@H](CN(C)C(=O)Nc2ccc(OC)cc2)OCCCC[C@H](C)O3)cc1 ?
Yeast UUG start: 18; HIV Env fusion: -29[16.7 µM]

How did C[C@H](CO)N1C[C@H](C)[C@@H](CN(C)S(=O)(=O)c2ccc(Cl)cc2)OCCCC[C@H](C)Oc2ccc(NC(=O)CCC(F)(F)F)cc2C1=O do in these assays?
Yeast UUG start: -2; HIV Env fusion: -19[16.7 µM]

How did Cc1noc(C)c1NC(=O)Nc1ccc2c(c1)C(=O)N([C@H](C)CO)C[C@@H](C)[C@H](CN(C)S(C)(=O)=O)OCCCC[C@@H](C)O2 do in these assays?
Yeast UUG start: 20; HIV Env fusion: 2[16.7 µM]

What do the screens show for `C[C@H]1CCCCO[C@H](CN(C)C(=O)Nc2ccc3c(c2)OCO3)[C@@H](C)CN([C@@H](C)CO)C(=O)c2cc(NC(=O)CCC(F)(F)F)ccc2O1`?
Yeast UUG start: 9; HIV Env fusion: 29[16.7 µM]

Results for CCC(=O)N(C)C[C@H]1Oc2cc(C#C[C@H](C)O)ccc2S(=O)(=O)N([C@H](C)CO)C[C@H]1C ?
Yeast UUG start: 6; HIV Env fusion: 0[16.7 µM]

Results for CN(C)CC(=O)N[C@H]1CC[C@H](CCNS(=O)(=O)c2ccccc2)O[C@H]1CO ?
Yeast UUG start: -4; HIV Env fusion: 10[16.7 µM]

What do the screens show for `C[C@@H]1CCCCO[C@H](CN(C)C(=O)C2CCCCC2)[C@H](C)CN([C@H](C)CO)C(=O)c2cc(NC(=O)Nc3ccccc3)ccc2O1`?
Yeast UUG start: 15; HIV Env fusion: -17[16.7 µM]

What do the screens show for `C[C@H]1CN([C@@H](C)CO)C(=O)c2cc(/C=C/c3ccccc3)cnc2O[C@H]1CN(C)S(=O)(=O)c1ccccc1`?
Yeast UUG start: 1; HIV Env fusion: 8[16.7 µM]

What do the screens show for `C[C@@H]1CCCCO[C@@H](CN(C)Cc2ccncc2)[C@@H](C)CN([C@H](C)CO)C(=O)c2cc(NS(=O)(=O)c3ccc(Cl)cc3)ccc2O1`?
Yeast UUG start: -2; HIV Env fusion: 9[16.7 µM]

How did O=C(NCC[C@H]1CC[C@H](NS(=O)(=O)c2ccc(F)cc2)[C@H](CO)O1)Nc1ccc(Cl)cc1 do in these assays?
Yeast UUG start: 20; HIV Env fusion: 1[16.7 µM]

What do the screens show for `CNC(=O)C[C@H]1CC[C@H]2[C@H](COc3ccc(NC(=O)c4ccccc4F)cc3C(=O)N2C)O1`?
Yeast UUG start: 12; HIV Env fusion: 11[16.7 µM]

What do the screens show for `O=C(NCC[C@@H]1CC[C@H](NS(=O)(=O)Cc2ccccc2)[C@@H](CO)O1)C1CC1`?
Yeast UUG start: 6; HIV Env fusion: 8[16.7 µM]

How did Cc1noc(C)c1S(=O)(=O)Nc1ccc2c(c1)C(=O)N([C@H](C)CO)C[C@@H](C)[C@@H](CN(C)C(=O)NC(C)C)O2 do in these assays?
Yeast UUG start: 4; HIV Env fusion: -27[16.7 µM]

Results for Cc1noc(C)c1NC(=O)N[C@@H]1C=C[C@@H](CC(=O)N2CCN(C)CC2)O[C@H]1CO ?
Yeast UUG start: -4; HIV Env fusion: 1[16.7 µM]

How did C[C@H]1CN([C@@H](C)CO)C(=O)c2cc(-c3cccc(F)c3)cnc2O[C@H]1CN(C)C(=O)Nc1cc(F)ccc1F do in these assays?
Yeast UUG start: 17; HIV Env fusion: 11[16.7 µM]

How did C[C@H](CO)N1C[C@H](C)[C@@H](CN(C)C(=O)Nc2ccc3c(c2)OCO3)Oc2ccc(NC(=O)C3CC3)cc2C1=O do in these assays?
Yeast UUG start: -1; HIV Env fusion: 16[16.7 µM]

What do the screens show for `CC(C)NC(=O)Nc1cccc2c1O[C@H](CN(C)C(=O)Nc1ccccc1)[C@H](C)CN([C@H](C)CO)C2=O`?
Yeast UUG start: 4; HIV Env fusion: -6[16.7 µM]

Three entries already listed, sorted by molecular weight, largest number first:
How did Cc1noc(C)c1S(=O)(=O)Nc1ccc2c(c1)C(=O)N([C@H](C)CO)C[C@@H](C)[C@@H](CN(C)C(=O)NC(C)C)O2 do in these assays?
Yeast UUG start: 4; HIV Env fusion: -27[16.7 µM]

Results for Cc1noc(C)c1NC(=O)N[C@@H]1C=C[C@@H](CC(=O)N2CCN(C)CC2)O[C@H]1CO ?
Yeast UUG start: -4; HIV Env fusion: 1[16.7 µM]

What do the screens show for `O=C(NCC[C@@H]1CC[C@H](NS(=O)(=O)Cc2ccccc2)[C@@H](CO)O1)C1CC1`?
Yeast UUG start: 6; HIV Env fusion: 8[16.7 µM]
